NPYLR7 ag – activates Aedes aegypti NPYLR7 receptor. 270,000 tested, 0.15% active. HEK293T NPYLR7/Galpha15, GCaMP6s calcium fluorescence. activation, % at 10 µM; in the data active = activation above about 40%;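 also: 0% = vehicle and 100% = reference agonist at the receptor; some compounds past the cut are filed as inactive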
NPYLR7 ag max-min – further read-out of NPYLR7 ag, marked with its call; activation, %; measured here: Max-Min RFU normalised activation; some inactives read as strong as hits;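 span of the calcium signal over five minutes; 0% = vehicle and 100% = native peptide agonist; compound fluorescence can raise it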
* hit, by the source's call; & = joins results of further samples. Only part of the results is shown, so the mix of outcomes need not match the whole.

SMILES	NPYLR7 ag	NPYLR7 ag max-min
CCCCN(CC(=O)N1CCc2sccc2C1c1ccc(Cl)cc1)C(=O)c1ccc(F)cc1 (centres undefined)	19	13
O=C(O)CCSc1nc(-c2ccccc2)c(-c2ccccc2)[nH]1	-13	-18
O=C(O)CSc1nc2c(cnn2CCO)c(=O)[nH]1	5	2
CC1(C)CC(Nc2nc3nonc3nc2NC2CCCC2)CCO1 (centres undefined)	-7	-9
CN(C)CCSc1nc2ccccc2[nH]1	8	12
CC1(C)C2(C(=O)N3CCN(Cc4cc(=O)c(OCc5cccc(F)c5)co4)CC3)CC[C@@]1(C)C(=O)O2	17	24
COc1cc(CN2CCC(C(=O)NC(c3ccc(F)cc3)c3ccc4ccccc4n3)CC2)cc(OC)c1 (centres undefined)	4	1
CCN(Cc1ccccc1)Cc1nc2ccccc2c(=O)[nH]1	-3	-3
COc1cccc(COc2c[nH]c(C(=O)Nc3cc(NC(C)=O)ccc3OC)cc2=O)c1	2	-1
CCOc1ccc(CN2CCC3(CC2)CNC(=O)C3)cn1	24	10
COc1ccc(CCNC(=O)C(C2CCCC2)N2CCN(C(=O)C3CCC3)CC2)cc1 (centres undefined)	-5	-3
CCOC(=O)c1ccc(NC(=O)CSc2c(C(C)C)cnc3c2c(=O)n(C)c(=O)n3C)cc1	8	14
COc1cn(CC(=O)NC(C)C)c(CN2CCN(c3ccccc3)CC2)cc1=O	-1	-2
COc1ccc(NC(=O)Nc2ccc(N3CCC(Cc4ccccc4)CC3)c(C(=O)N3CCCC3)c2)cc1	-3	4
O=C(CSc1nc(=O)n(CCCN2CCOCC2)c2c1CCC2)Nc1nc2ccccc2s1	-1	-6
Cc1ccc(C)c(CN(Cc2nc(C(=O)NCC3CCCO3)co2)C(C)c2ccccc2)c1 (centres undefined)	-4	18
CC(C)(C)CC(=O)NCCc1ccc(S(N)(=O)=O)cc1	-1	-3
Clc1ccc(-n2cnnc2C2CCOCC2)cc1	11	8
Cn1cc(/C=C/C(=O)N2CCN(Cc3ccsc3)CC2)c(=O)n(C)c1=O	-1	-5
Cc1cc(C(=O)O)ccc1-c1ccc(C(C)N2CCOCC2)cc1 (centres undefined)	13	9
c1ccc(-c2cc3c(-n4cccc4)ncnc3o2)cc1	4	1
NC(=N/N=C\c1ccc(O)cc1O)c1nonc1N	-18	-21
O=C(COc1cccc(Cl)c1)N1CCC(c2ccc(F)cc2)CC1	-7	-14
CC(=O)Nc1ccc(NC(=O)Nc2cn(C)c3ccccc23)cc1	1	-2
COc1ccc(-n2nc(-c3cccc(OC)c3)cc2C(=O)N2CCC3(CC2)OCCO3)cc1	-5	0

Part of the list above in another layout.
structure | NPYLR7 ag | NPYLR7 ag max-min
CCCCN(CC(=O)N1CCc2sccc2C1c1ccc(Cl)cc1)C(=O)c1ccc(F)cc1 (centres undefined) | 19 | 13
O=C(O)CCSc1nc(-c2ccccc2)c(-c2ccccc2)[nH]1 | -13 | -18
O=C(O)CSc1nc2c(cnn2CCO)c(=O)[nH]1 | 5 | 2
CC1(C)CC(Nc2nc3nonc3nc2NC2CCCC2)CCO1 (centres undefined) | -7 | -9
CN(C)CCSc1nc2ccccc2[nH]1 | 8 | 12
CC1(C)C2(C(=O)N3CCN(Cc4cc(=O)c(OCc5cccc(F)c5)co4)CC3)CC[C@@]1(C)C(=O)O2 | 17 | 24
COc1cc(CN2CCC(C(=O)NC(c3ccc(F)cc3)c3ccc4ccccc4n3)CC2)cc(OC)c1 (centres undefined) | 4 | 1
CCN(Cc1ccccc1)Cc1nc2ccccc2c(=O)[nH]1 | -3 | -3
COc1cccc(COc2c[nH]c(C(=O)Nc3cc(NC(C)=O)ccc3OC)cc2=O)c1 | 2 | -1
CCOc1ccc(CN2CCC3(CC2)CNC(=O)C3)cn1 | 24 | 10
COc1ccc(CCNC(=O)C(C2CCCC2)N2CCN(C(=O)C3CCC3)CC2)cc1 (centres undefined) | -5 | -3
CCOC(=O)c1ccc(NC(=O)CSc2c(C(C)C)cnc3c2c(=O)n(C)c(=O)n3C)cc1 | 8 | 14
COc1cn(CC(=O)NC(C)C)c(CN2CCN(c3ccccc3)CC2)cc1=O | -1 | -2
COc1ccc(NC(=O)Nc2ccc(N3CCC(Cc4ccccc4)CC3)c(C(=O)N3CCCC3)c2)cc1 | -3 | 4

Carrying on.
SMILES	NPYLR7 ag	NPYLR7 ag max-min
COc1cc(Cl)ccc1CNC(=O)N1CCC(CO)CC1	-6	-6
O=C(NCCc1cccs1)N1CCN(S(=O)(=O)c2c(Cl)cccc2Cl)CC1	-17	-19
O=C(NCc1ccccc1Cl)c1ccc(-c2cc(-c3cccc4c3OCCO4)[nH]n2)cc1	22	18
CNc1ncccc1C(=O)NC(C)c1ccc(O)c(F)c1 (centres undefined)	2	-2
Cn1ccc(NCC(C)(C)CCC#N)n1	13	9
C=CCN(CC(=O)N(CCc1ccc(OC)c(OC)c1)Cc1ccc(C)o1)C(=O)Nc1cccc(Cl)c1	-8	-16
CCC1CCCN(C(=O)c2cc(NC(=O)c3cc(OC)cc(OC)c3)ccc2O)C1 (centres undefined)	21	6
Cc1onc(-c2ccccc2)c1C(=O)N1CCN(c2ccc(Cl)cc2)CC1	-4	-4
Cc1ccc(NC(=O)Cn2c(=O)cnc3ccccc32)cc1Br	-5	-8
COc1cc(C)c(CNC(C)c2csc(C3CC3)n2)cc1OC (centres undefined)	-1	-2
CC(C)(C)SCCNC(=O)CN(c1ccc(Cl)cc1Cl)S(=O)(=O)c1ccccc1	4	9
CCOC(=O)c1sc2nc(CNC)[nH]c(=O)c2c1C	10	28
COC(=O)COC(=O)c1cccc2c1C(=O)c1ccccc1C2=O	-1	-2
O=C(c1cc(-c2ccccc2)n2nc(-c3ccccc3)cc2n1)N1CCN(c2cccc(C(F)(F)F)c2)CC1	9	6
COc1ccc2cc(C(=O)C3CCCN(Cc4cccc(C(C)=O)c4)C3)ccc2c1 (centres undefined)	4	-3
COCCN(Cc1csc(COc2cc(C)cc(C)c2)n1)C(C)=O	1	11
COc1ccc(-c2nc3ccc(C)cn3c2NC(C)=O)cc1	13	17
Cc1ccc(CN(Cc2ccc(F)cc2)CC(C)O)s1 (centres undefined)	-3	9
COc1ccc(NC(=O)C(C2CCCC2)N2CCN(C(=O)c3ccccc3C(F)(F)F)CC2)cc1 (centres undefined)	1	22
CC[C@H]1CN(C(=O)c2cnn3ccccc23)CC[C@@]1(C)O	6	2
NC(=O)c1cc2c(nc1-c1ccc(F)cc1Cl)CCC2	14	-4
O=C(CSc1nc2c(c(=O)n1-c1ccccc1)SCC2)Nc1nccs1	-2	-5
NC(=O)CN(Cc1ccc(Br)cc1)Cc1nc2ccccc2s1	0	1
CCCNC(=O)[C@@H]1CCCC[C@@H]1C(=O)NCc1cc(C)oc1C(F)(F)F	5	3
O=C(NCCc1ccccc1)N1CCC(n2cc(CCCO)nn2)CC1	5	3
SMILES	NPYLR7 ag	NPYLR7 ag max-min
Cc1ccsc1C(CNC(=O)c1cc2n(n1)CCCN(C)C2)N(C)C (centres undefined)	-3	-7
CCn1c(CN2CCC(O)(Cc3cc(-c4ccccc4)no3)CC2)nc2ccccc21	4	0
N#Cc1ccc(NC(=O)CSc2n[nH]c(=O)c3cc(-c4ccco4)nn23)cc1	-3	-7
COc1ccc(Cn2c(N)nc(C#N)c2C#N)cc1F	3&8	1&8
CCOC(=O)c1cc(C(C)(C)C)n(C2CCN(C(=O)c3cc(C)nc(Cl)c3)CC2)n1	-6	-13
COc1cc(=O)n(-c2ccccc2C)nc1C(=O)N(Cc1ccccc1)c1ccccc1	9	8
O=C(c1cc(-c2ccccc2)n2nc(-c3ccccc3)cc2n1)N1CCN(c2ccccc2F)CC1	-3	5
CCc1nc2ccc(C(=O)N3CCN(S(=O)(=O)CC)CC3)cn2c1N(CC)C(=O)CCC1CCCC1	17	10
O=C(c1cnn2cc(CCO)cnc12)N(Cc1ccsc1)CC1CCCO1 (centres undefined)	17	10
Nc1nc2ccccc2[nH]1	2	-2
Cc1ccc(NC(=O)c2cc3cc(Br)ccc3oc2=N)cc1	-7	-16
COc1ccc(C(=O)Nc2cc(C3CC3)nn2-c2nc(C)c(C)c(=O)[nH]2)c(OC)c1	9	8
O=C(CN1C(=O)COc2ccccc21)Nc1ccc2c(c1)-c1ccccc1C2	0	0
COc1cccc(Cc2nsc(N3CCN(C(=O)c4ccc(OC)cc4OC)CC3)n2)c1	-3	2
N#C/C(=C\c1cn(CCC(N)=O)c2ccccc12)Sc1nc2ccccc2s1	-4	-6
Cn1c(O)c(N=NC(=O)c2cccc(I)c2)c2ccccc21	4&-3	0&-8
CCCc1nc(N2CCN(S(=O)(=O)c3ccc(Br)cc3)CC2)c2c(C)nn(-c3ccccc3)c2n1	8	10
CCOC(=O)C1CCCN(C(=O)c2cccc(CSc3nc(N4CCN(c5ccc(OC)cc5)CC4)cc(C(C)(C)C)n3)c2)C1 (centres undefined)	4	7
CC(c1ccncn1)N(C)C(=O)c1cccc(C#CC(C)(C)O)c1 (centres undefined)	7&10	4&6
CCCCc1ccc(C(=O)N(CC(=O)N(Cc2ccc3c(c2)OCO3)Cc2cccs2)CC2CCCO2)cc1 (centres undefined)	6	21
COc1ccc(N=C(N)N)cc1	5	7
O=c1cc(CSc2nnc(-c3ccc(Cl)s3)o2)occ1O	6	4
Cc1nn(-c2ccccc2)c(Cl)c1C1C2=C(CCCC2=O)OC(=N)C1C#N (centres undefined)	1	2
CN(C)CCCN1C(=O)C(=O)C(=C(O)c2ccc(Cl)cc2)C1c1cccs1 (centres undefined)	5	6
COCCOC(=NCCCN(C)C)NC(=O)c1ccc(OC)cc1	6	11
SMILES	NPYLR7 ag	NPYLR7 ag max-min
O=C(NC(c1ccccc1)c1ccc2ccccc2n1)C1CCN(Cc2ccc(Cl)c(Cl)c2)CC1 (centres undefined)	14	3
COc1cccc(C2c3cccn3CCCN2Cc2cccc(F)c2)c1OC (centres undefined)	31	43
Cc1ccc(-n2c(SCC(=O)NC3CCCCC3)nc3c(c2=O)SCC3)cc1	-3	-6
COc1ccc(C(=O)Oc2coc(CSc3nc(C)cs3)cc2=O)c(OC)c1	-13	-7
COc1cc(-c2c(NC(=O)c3ccccc3)oc3ccccc3c2=O)cc(OC)c1OC	-4	-5
Cc1ccc(C(=O)Nc2cc(-n3c(C)nc4ncccc4c3=O)ccc2F)cc1[N+](=O)[O-]	6	2
COc1ccccc1C(=O)N(C(=O)N1CCCCC1)c1ccc(Cl)cc1	27	24
Cc1ccc(C2=NOC(CN(Cc3cccc(C(F)(F)F)c3)C(=O)c3cccc(F)c3)C2)cc1 (centres undefined)	4	13
Cc1c(C(=O)NCCC#N)sc(=O)n1Cc1ccc(Cl)c(Cl)c1	12	8
CC(Sc1nc2ccccc2s1)C(=O)N/N=C\c1ccc([N+](=O)[O-])s1 (centres undefined)	2	11
c1cnc2ccc(CNc3nc4nonc4nc3N3CCOCC3)cc2c1	-3	-4
COC(=O)c1cc2c(=O)n(C(C)c3ccc(OC)cc3)ccc2nc1C (centres undefined)	-7	-11
COCc1nc(-c2ccccc2)nc(N2CCN(C(=O)c3ccccc3Cl)CC2)c1Cc1cccc(Cl)c1	23	24
CCN(CC)c1ccc(CN(CCOC)C(=O)NC(C)(C)C)c(OS(C)(=O)=O)c1	0	11
Cc1cc(C(=O)Nc2ccc(OCc3ccccn3)c(F)c2)n[nH]1	-1	-2
COc1ccc(OCCn2c(C(C)(C)O)nc3ccccc32)cc1	1	-5
O=C(O)c1c2c(nn1-c1ccccc1)CCCC2	3	4
COc1ccc(C2(C(=O)N3CCC4(CC3)CN(C)CCN4C)CCCC2)cc1	0	15
CC(CO)(Nc1ncc(Br)cn1)C1CC1 (centres undefined)	0	-3
CCOC(=O)c1cc(-c2cccc(NC(=O)COCc3ccccc3)c2)n(-c2cccc(F)c2)n1	23	14
NC(=O)c1cc2c([nH]c1=O)CCCC2NC(=O)c1ccc2c3c(cccc13)CC2 (centres undefined)	16	13
O=C(CCCc1nnc2c(=O)n(-c3ccc(Cl)cc3)ccn12)NCc1ccc(F)cc1	0	-4
Cc1cccc(C)c1NC(=O)C1CCN(c2ccc3nnc(C(F)(F)F)n3n2)CC1	5	5
O=C(Nc1ccc(-c2nc(-c3ccccc3)c3ccccc3n2)cc1)c1ccc([N+](=O)[O-])cc1	-5	-11
Cc1cccnc1C(NC(=O)C1CCN(Cc2cccn2C)CC1)c1ccc(Cl)cc1 (centres undefined)	-7	-9
SMILES	NPYLR7 ag	NPYLR7 ag max-min
Cc1cc(N2CCCCC2)nc(Nc2ccc(NC(=O)C3CCCO3)cc2)n1 (centres undefined)	10	4
CC(C)(O)C#Cc1ccc(C2CC(=O)Nc3cc4[nH]ncc4cc32)s1 (centres undefined)	-8	-9
O=c1c(Cl)c(N2CCN(c3ccccc3)CC2)cnn1Cc1ccc(Cl)cc1	4	5
CCOC(=O)c1cnn(-c2cc(Nc3ccccc3)ncn2)c1C	4	4
Cc1nc(NCC2CCCO2)c2sc3nc4c(cc3c2n1)COC(C)(C)C4 (centres undefined)	5	1
COc1ccccc1C(=O)N1CCC(n2c(=O)oc3ccc(Cl)cc32)CC1	1	-5
COc1ccc2c(c1)CCCN2C(=O)C1=NN(c2ccccc2)C(=O)CC1	6	5
COc1cc2c(cc1OC)C1CN(C(=O)c3cncc(Br)c3)CC(=O)N1CC2 (centres undefined)	15	6
Cc1ccc(-n2nc(-c3cccn3C)cc2C(=O)N2CCN(c3cccc(Cl)c3)CC2)cc1	-1	4
C=CCN(CC(=O)N(CCc1ccccc1)Cc1ccc(C)o1)C(=O)C1CCC1	3	7
CN(C)C(CNS(=O)(=O)CCc1ccccc1)c1cccc2ccccc12 (centres undefined)	0	-1
NC1=NC(c2ccccc2Br)n2c(nc3ccccc32)N1 (centres undefined)	2	9
CC(=O)OC12c3ccccc3OC(=O)C1(C)C1(OC(C)=O)c3ccccc3OC(=O)C21C (centres undefined)	3	-1
OC[C@H]1OC(n2cnc3c(N[C@H]4CCC[C@@H]4O)ncnc32)[C@H](O)[C@@H]1O (some centres undefined)	6	-13
CCCCN(C)C(=O)c1sc(=O)n(CC(=O)c2ccc3c(c2)OCCO3)c1C	-4	-3
COc1cc(OC)cc(C(=O)NC(C(=O)NN(C)C)C23CC4CC(CC(C4)C2)C3)c1 (centres undefined)	0	-3
CN=c1scc(-c2ccco2)n1N=Cc1cc(Br)c(O)c(OC)c1	2	0

Screening data: PubChem BioAssay, Fisher Drug Discovery Resource Center
